# Screening results (PubChem)
# VACV mCherry inh = vaccinia inhibition (mCherry reporter); Vaccinia virus mCherry reporter infection, fluorescence; about a quarter of the inactives have no number; Potency, µM (series often up to 36.5 µM), for inactives: top-dose activity change, negative = inhibition, most hits filed as inhibitors; hit rate 0.63% among 310,000; AID 720579; active = well fitted inhibition curve with a large enough effect; inconclusive = small, poorly fitted or top-dose-only effect; inactive = no such curve, though single readings can be large or run the other way; tested in A549 cells; note: nearly all actives have a fitted effect of over 35% in size; inactives centre near -10
# VACV Venus inh = inhibitors of vaccinia virus (Venus reporter) | Vaccinia virus Venus reporter expression, fluorescence | hit rate 0.46% among 330,000 | Potency, µM (titrated, usually from 36.5 µM), for the others: at the highest dose activity change, negative = inhibition, most hits filed as inhibitors; active means well fitted inhibition curve with a large enough effect; inconclusive means small, poorly fitted or top-dose-only effect; inactive means no such curve, though single readings can be large or run the other way; tested in A549 cells; note: nearly all actives have a fitted effect of over 30% in size; inactives centre near -10
# The depositor's hits bear a star; i = inactive; u = inconclusive; x = not tested or not shown. % is set by controls: 0 for no effect and ±100 for the full control effect; potency is the fitted concentration of half-maximal effect.
SMILES	VACV mCherry inh	VACV Venus inh
O=C(CSc1ccc2c(c1)OCCO2)Nc1cccc(S(=O)(=O)N2CCCCC2)c1	-12%	-3%
O=C(CC(c1ccccc1)c1ccccc1)NCCO	x	-11%
CCOC(=O)C1=CCN(S(=O)(=O)c2ccc(C)cc2)C1c1ccccc1F (stereo not given)	i	-10%
C=CCOc1ccccc1/C=N/n1nnnc1N	i	-14%
COc1ccc(NC2CCCN(C(=O)c3ccccc3-c3ncc[nH]3)C2)cc1 (stereo not given)	-9%	2%
CN(C)c1cccc(C(=O)NNC(=O)CSc2ccccc2)c1	-3%	-13%
CC(/C=N/n1c(-c2ccco2)n[nH]c1=S)=C\c1ccco1	-12%	-11%
Cc1noc(C)c1NC(=O)N(C)C[C@@H]1Oc2ncc(C#CC3CC3)cc2C(=O)N([C@@H](C)CO)C[C@@H]1C	-19%	-3%
Cc1cccc(C(c2c(C)nn(-c3ccccc3)c2N)c2c(C)nn(-c3ccccc3)c2N)c1	i	-5%
CCCCOc1ccc(/C=C/C(=O)N(CC)CC(=O)Nc2ccc3c(c2)OCCO3)cc1OC	-16%	-27%
O=C(OC[C@H]1O[C@@H](OC(=O)c2cc(O)c(O)c(OC(=O)c3cc(O)c(O)c(O)c3)c2)[C@H](OC(=O)c2cc(O)c(O)c(OC(=O)c3cc(O)c(O)c(O)c3)c2)[C@@H](OC(=O)c2cc(O)c(O)c(OC(=O)c3cc(O)c(O)c(O)c3)c2)[C@@H]1OC(=O)c1cc(O)c(O)c(OC(=O)c2cc(O)c(O)c(O)c2)c1)c1cc(O)c(O)c(OC(=O)c2cc(O)c(O)c(O)c2)c1	5.6µM*	10µM*
COc1ccc(-n2ncc3c2ncn2nc(-c4ccc(OC)c(OC)c4)nc32)cc1	-10%	-6%
Cc1cccc(C)c1NC(=O)CN1C(=O)c2cccc3cccc1c23	1%	-12%
O=C(CC(C(=O)O)c1ccccc1)Nc1cccc2ccccc12 (stereo not given)	-9%	-1%
COc1cccc(-c2nc3cc4c(cc3cc2CN(C(=O)c2cc(C)nn2C)C2CC2)CCC4)c1OC	-20%	-7%
CC(NC(=O)N1CC1(C)C)c1ccccc1 (stereo not given)	i	-2%
O=C(NCCc1ccccc1Cl)C1CC(=O)N(C2CCCCC2)C1 (stereo not given)	10%	-15%
COc1ccc(C2C(C(=O)c3cccs3)=C(O)C(=O)N2c2nnc(C)s2)cc1OC (stereo not given)	i	3%
COc1cc(NC(=O)Nc2ccc3c(c2)OCO3)cc(OC)c1OC	-6%	12%
Cc1cc(C)cc(SCc2noc(C(=O)NCC3CCCO3)c2C(=O)O)c1 (stereo not given)	i	-14%
CCOC(=O)C1=CC[C@H]2c3c(c4ccc(OC)cc4n3C)C(=O)C1N2S(=O)(=O)c1ccc(C)cc1	i	-30%
COc1ccc(CCNCC(O)COc2c(C)cccc2C)cc1OC (stereo not given)	i	-12%
COc1ccccc1C(=O)NCCc1nc2ccccc2[nH]1	x	-5%
COc1ccc2c(c1)CCc1c(C(=O)Nc3ccc(OC)cc3OC)noc1-2	4%	6%
Cc1cccc(-c2nc3c4ccccc4n(Cc4cccc(Cl)c4)c(=O)n3n2)c1	-6%	-24%
Cn1nnnc1SCCCNCc1cc(Br)ccc1OCc1ccccc1F	-17%	-18%
Cc1cc(NC(=O)c2cc3ccccc3o2)ccc1NC(=O)c1ccccc1	-5%	-10%
Cc1ccc(S(=O)(=O)c2cn(CC(=O)Nc3ccc(Cl)cc3)c3ccc(F)cc3c2=O)cc1C	-20%	-16%
CC(c1nc2ccccc2n1Cc1ccccc1)n1c(-c2cnccn2)nc2ccccc21 (stereo not given)	-6%	-22%
CCN(C1CCS(=O)(=O)C1)S(=O)(=O)c1ccc2ccccc2c1 (stereo not given)	i	-18%
O=[N+]([O-])c1cc(S(=O)(=O)Nc2ccccc2)ccc1NCc1ccccc1	u	-17%
Cc1c(C(=O)Nc2cnccn2)oc2ccccc12	-7%	-24%
OCCN(Cc1ccccn1)Cc1ccccn1	6%	6%
CS(=O)(=O)c1ccc(C2=C(CNC(=O)c3cccnc3)[C@H]3CC[C@@H](C2)N3Cc2ccccc2)cc1	i	-6%
CC[n+]1c(/C=C/N(C)c2ccccc2)n(-c2ccccc2)c2ccc(-c3nc4ccccc4s3)cc21	u	4.5µM*
O=C(NC(=S)Nc1ccccc1N1CCOCC1)c1ccccc1F	-23%	-17%
CC(C)c1ccccc1N=C1SCCN1C1CCS(=O)(=O)C1 (stereo not given)	-16%	-5%
Nc1nc(SCC(=O)Nc2cccc(S(=O)(=O)N3CCCCCC3)c2)n[nH]1	i	-11%
N#C/C(=C\c1ccc(Cl)cc1Cl)c1nc(-c2cccc(Cl)c2)cs1	-6%	-10%
O=C(COC(=O)c1cncc(Br)c1)NCc1ccccc1	i	-13%
COc1cccc(C(C#N)N2CCCCC2)c1O (stereo not given)	x	-18%
COCCN(C(=O)COC(=O)COc1ccc2ccccc2c1)c1c(N)n(Cc2ccccc2)c(=O)[nH]c1=O	i	-11%
COc1ccc(NC(=O)C2CCN(S(=O)(=O)c3cc(-c4noc(C)n4)ccc3C)CC2)cc1	-15%	-13%
CC1Cc2cc(/C(O)=C3/C(=O)C(=O)N(CC4CCCO4)C3c3ccco3)ccc2O1 (stereo not given)	0%	-14%
Cc1cccc(NS(=O)(=O)c2cnc[nH]2)c1	-12%	-5%
CN(C)c1ccc(CNn2cnnc2SCC(=O)NC(C)(C)C)cc1	-5%	2%
COc1ccc(OC)c(-c2csc(NC(=O)CSc3ccc([N+](=O)[O-])cc3)n2)c1	-18%	-4%
CCOc1cc(/C=C(\C#N)C(=O)Nc2ccc(C)cc2)ccc1OCc1cc(=O)n2nc(CC)sc2n1	0%	-8%
Cc1ccc(C(=O)N2CCC(Cc3ccccc3)CC2)cc1[N+](=O)[O-]	-13%	-13%
Cc1nnc(SCC(=O)NC2CCS(=O)(=O)C2)n1Cc1ccccc1 (stereo not given)	5%	8%

# Pulled one by one from the list above:
SMILES	VACV mCherry inh	VACV Venus inh
CN(C)c1ccc(CNn2cnnc2SCC(=O)NC(C)(C)C)cc1	-5%	2%
Cc1ccc(C(=O)N2CCC(Cc3ccccc3)CC2)cc1[N+](=O)[O-]	-13%	-13%
COCCN(C(=O)COC(=O)COc1ccc2ccccc2c1)c1c(N)n(Cc2ccccc2)c(=O)[nH]c1=O	i	-11%
COc1cccc(C(C#N)N2CCCCC2)c1O (stereo not given)	x	-18%
Cc1ccc(S(=O)(=O)c2cn(CC(=O)Nc3ccc(Cl)cc3)c3ccc(F)cc3c2=O)cc1C	-20%	-16%

# More compounds:
SMILES	VACV mCherry inh	VACV Venus inh
CCn1c(CC(=O)Nc2ccc(F)cc2)nnc1SCC(=O)Nc1nnc(C)s1	6%	-4%
CN(C(=O)CS(=O)(=O)Cc1ccccc1Cl)c1ccccc1	-4%	-6%
Cc1ccc(CNC(=O)c2ccc(Cn3c(SCc4ccc(F)cc4)nc4cccnc43)cc2)o1	-6%	-14%
CCC(C)(C)C1CCC(NC(=O)N2CCN(c3ccccc3O)CC2)CC1 (stereo not given)	-14%	-7%
COc1ccccc1NCc1cccn1-c1nnc(N2CCCCCC2)s1	-6%	-1%
Cn1ncc(Cl)c1C(=O)N1CCN(c2cccc(Cl)c2)CC1	-23%	-25%
CCn1c(C)[n+](CCOC(C)=O)c2cc(Cl)c(Cl)cc21	-10%	-16%
CS(=O)(=O)N1CCC2CC1c1cc(-c3ccccc3)ccc12 (stereo not given)	-19%	-13%
CSc1cccc(NC(=O)COC(=O)C2(c3ccccc3)CC2)c1	i	-9%
CC(C)(C)CC(C)(C)N=C1Nc2ccccc2N[C@]12C[C@H]1CCCC(=O)N3CC[C@@H](C2)[C@@H]13	i	-14%
Cc1ccccc1NC(=O)CSc1nc(COc2ccccc2)nc2ccccc12	i	-7%
COC(=O)C(NC(C)=O)(Nc1nc2ccc(C)cc2s1)C(F)(F)F (stereo not given)	-20%	-27%
CCOc1ccc(S(=O)(=O)N2CCN(c3ccc(OC)cc3)CC2)c2cccnc12	-26%	-20%
CCN1C(=O)[C@@H]2[C@H](C1=O)[C@@H]1C[C@H]3C(=O)N(CC)C(=O)[C@H]3[C@@H]3C1=C(C(=O)N1C(=O)OC(=NCC4CC4)[C@]31C)[C@@H]2C	i	-4%
CCc1c(C2(O)CCCCC2)[nH]c2ncccc12	u	-23%
O=C(NCCC1=CCCCC1)c1ccc(F)cc1	i	-19%
COc1ccc(C(=O)CSC#N)cc1OC	i	1%
CC(C)(/C=N/NC(=O)CSCc1ccccc1Cl)CCC#N	-6%	-7%
Cn1nnnc1SCCOc1ccc(C#N)cc1	i	-9%
COc1cc(OC)cc(-c2c(-c3cccs3)c3cc(-c4ccc(CN5CCOCC5)cc4)ccc3n2C)c1	i	-5%
COc1cc(N)c(Cl)cc1C(=O)OCC(=O)c1cccs1	-14%	-9%
COc1cc(NC(=O)c2cc(C)nc3ccccc23)cc(OC)c1	i	-20%
Cc1ccc(S(=O)(=O)N2CCCC2CNC(=O)C(=O)NC2CC2)cc1 (stereo not given)	i	-23%
Cc1ccc(N(C(=O)CNC(=O)c2cccs2)C(C(=O)NC2CCCC2)c2ccncc2)cc1 (stereo not given)	5%	5%
Cc1ccccc1-n1nnnc1SCC(C)C	-14%	-7%
CC1=C(C(=O)Nc2ccccc2)C(c2ccc(O)cc2)n2nc(-c3ccc(Cl)cc3)nc2N1 (stereo not given)	-15%	-7%
CCc1cnc2c(c1SCC(=O)Nc1ccc(C(=O)OC)cc1)c(=O)n(C)c(=O)n2C	-13%	-9%
O=C(Nc1nccs1)c1cc(-c2ccccc2)nc2ccccc12	-21%	-3%
O=C(Nc1ccccc1N1CCOCC1)c1cc2c(s1)CCCCC2	-2%	-14%
O=C(/C=C/c1ccc(F)cc1)NC(Cc1c[nH]c2ccccc12)C(=O)O (stereo not given)	2%	4%
CCc1ccccc1-n1c(-c2ccncc2)n[nH]c1=S	-11%	-8%
c1nnc(NC2=NCCC2)s1	x	-16%
CC(C)[C@H](NC(=O)c1ccccc1Cl)C(=O)OCC(=O)N1CCCCC1	-9%	-6%
Cc1ccc(/C=C/C(O)=C2/C(=O)N(C)C3(C)CC2c2ccccc2O3)cc1 (stereo not given)	u	u
O=C(N1CCOCC1)C12CCC3CC(CC(C3)C1)C2	x	-15%
CCOc1ccc(Cn2c3ccc(OC)cc3c3nc4ccccc4nc32)cc1	-5%	-5%
COc1ccc(S(=O)(=O)N(Cc2ccco2)Cc2cc3ccccc3[nH]c2=O)cc1	i	-13%
CCNC(=O)NC(=O)C(C)SCc1ccccc1C (stereo not given)	-13%	-8%
COc1cc(C2CC(=O)Oc3cc(O)ccc32)cc(OC)c1OC (stereo not given)	i	-2%
COc1cccc(N=c2oc3cc(O)ccc3cc2C(=O)NCC2CCCO2)c1 (stereo not given)	i	-25%
CCn1cc(C(=O)N2CCN(c3ccccc3OC)CC2)c(=O)c2cc(S(=O)(=O)N3CCC(C)CC3)ccc21	u	-21%
O=c1c2cc(Br)ccc2nc2n1CCCCC2	-17%	-12%
CCOCC(=O)Nc1ccc2c(c1)OCCO2	-22%	-12%
COc1ccc(-c2nnn3c2nc(NCc2ccc(C)cc2)c2ccccc23)cc1	-1%	0%
CN(CC(=O)Nc1ccc(C#N)cc1)CC(=O)Nc1ccc(N2CCOCC2)cc1	i	-17%
CCN(CC)c1ccc(/C=N/N2CCN(c3ccccn3)CC2)cc1	i	-6%
CCOc1ccc(NC(=O)c2sc3nc(-c4ccc(OC)cc4)cn3c2C)cc1	-19%	-23%
CCC1CN(C(=O)Nc2cc(C)ccc2OC)c2cc(Cl)ccc2O1 (stereo not given)	5%	-4%
COC(=O)c1ccc(NC(=O)C2(S(=O)(=O)c3ccc(C)cc3)CC2)cc1	2%	2%
NNC(=O)c1cccc(COCC(F)(F)C(F)F)c1	-6%	-2%

# New compounds follow.
SMILES	VACV mCherry inh	VACV Venus inh
COc1nc(Nc2ccc3c(c2)OCO3)nc(OC)n1	i	-5%
Cc1oc(-c2cccc(F)c2)nc1CN(Cc1ccccc1)C[C@@H]1CCC(=O)N1	i	-15%
Cc1ccccc1NC(=O)c1sc2nc(-c3ccncc3)ccc2c1N	-16%	4%
COCc1cc(=O)[nH]c(Nc2nc3ccc(C)cc3o2)n1	x	u
Cc1ccc(NC(=O)c2c(C)oc3ccc(O)c(CN4CCOCC4)c23)cc1	-3%	5%
Nn1c(SC/C=C/c2ccccc2)nnc1-c1ccncc1	i	-15%
CCN(CC)c1ccc(/C=C2/C(=O)c3ccc(C(=O)O)cc3C2=O)cc1	-3%	22%
O=c1cccc2n1C[C@H]1C[C@@H]2CN2CCCC[C@@H]12	16%	6%
CCOc1ccccc1NC(=O)C(OC(=O)c1ccc(O)cc1)c1ccccc1 (stereo not given)	-16%	u
CCN1CCN(S(=O)(=O)c2ccc(Cl)c(C(=O)NC3CCCC3)c2)CC1	-13%	-8%
CCCCNC(=S)NNC(=O)C12CC3CC(CC(C3)C1)C2	x	u

# Sorted by molecular weight (low to high): 3 of the compounds above.
SMILES	VACV mCherry inh	VACV Venus inh
COc1nc(Nc2ccc3c(c2)OCO3)nc(OC)n1	i	-5%
Cc1ccccc1NC(=O)c1sc2nc(-c3ccncc3)ccc2c1N	-16%	4%
CCOc1ccccc1NC(=O)C(OC(=O)c1ccc(O)cc1)c1ccccc1 (stereo not given)	-16%	u
